PABP polyA inh: blocks human PABP binding to poly(A) RNA. AID 2014. inhibition, % at 35 µM. actives 1% (n = 290,000). fluorescence polarization. P11940;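 active means 50% or more with normal probe brightness, or confirmed in later tests; inconclusive means above 50% with abnormal brightness, or retests that disagree; inactive means below 50% or failed in later tests; about a fifth of its hits are not listed in these tables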;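 further: calls also rest on retests at 20 µM and on dose response follow-up; controls were probe without protein and protein plus probe with vehicle; some compounds called inactive have numbers as strong as hits; many hits fall short of the cut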
Target sequence (P11940 whole entry, looked up): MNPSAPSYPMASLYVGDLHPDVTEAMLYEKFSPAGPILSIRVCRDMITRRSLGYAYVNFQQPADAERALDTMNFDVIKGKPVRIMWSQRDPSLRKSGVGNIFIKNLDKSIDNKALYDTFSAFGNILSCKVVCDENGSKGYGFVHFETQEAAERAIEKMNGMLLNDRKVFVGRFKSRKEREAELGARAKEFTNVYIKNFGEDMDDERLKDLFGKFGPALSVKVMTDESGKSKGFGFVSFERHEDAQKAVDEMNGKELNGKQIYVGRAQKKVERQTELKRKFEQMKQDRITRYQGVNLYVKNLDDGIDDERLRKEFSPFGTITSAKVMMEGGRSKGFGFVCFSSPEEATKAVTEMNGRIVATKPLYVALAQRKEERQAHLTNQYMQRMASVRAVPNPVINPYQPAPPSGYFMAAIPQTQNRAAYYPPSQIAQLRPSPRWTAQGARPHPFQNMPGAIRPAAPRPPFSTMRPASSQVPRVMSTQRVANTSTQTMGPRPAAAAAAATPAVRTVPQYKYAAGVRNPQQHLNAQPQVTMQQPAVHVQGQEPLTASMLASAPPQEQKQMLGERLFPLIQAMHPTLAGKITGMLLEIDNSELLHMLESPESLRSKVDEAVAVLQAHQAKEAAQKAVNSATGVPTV
Rce1 inh: blocks yeast Ras-converting enzyme. AID 2563. yeast membranes, quenched prenylated peptide cleavage fluorescence. Q03530. calls only. actives 0.27% (n = 290,000);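 active means fall in fluorescence gain of 50% or more versus controls, with final raw signal at or below 3038400; inconclusive means same 50% fall but final raw signal above 3038400; inactive means fall in fluorescence gain under 50%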;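 further: plate controls were neutral control wells for no effect and wells lacking membranes for full effect; tested at 10 µM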
Env fusion inh: inhibitors of HIV Env-mediated cell fusion; actives 1.1% (n = 360,000); HeLa-JRFL Env/CEM21 cell fusion, luciferase; inhibition, % at 12.3 µM;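 active means mean replicate inhibition score of at least 50 and every replicate individually at or above 50; inconclusive means only one of the two criteria met; inactive means mean below 50 and not all replicates reaching 50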;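 further: 0% = plate neutral controls and 100% = maraviroc near 300 nM; one replicate is shown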
UUG fidelity: modulators of start codon recognition fidelity in yeast | S. cerevisiae UUG-firefly luciferase reporter, luminescence/redox ratio | activity score, % at 18.7 µM | actives 0.13% (n = 350,000);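 active means replicate mean at a twofold rise or more, about +100% in these data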;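 further: firefly luciferase made from a UUG start codon reports start codon fidelity; reporter light over untreated wells divided by growth signal over untreated wells; some hits fall short of that in this replicate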
eIF4H FP inh: inhibitors of RNA binding by human eIF4H; AID 2012; eIF4H fluorescence polarization binding assay; actives 0.94% (n = 290,000); Q15056; inhibition, % at 35 µM;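 active means 50% or more with normal probe brightness, or confirmed in later tests; inconclusive means above 50% with abnormal brightness, or retests that disagree; inactive means below 50% or failed in later tests; about a fifth of its hits are not listed in these tables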;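 further: calls also rest on retests at 20 µM and on dose response follow-up; 0% = protein and probe with vehicle and 100% = probe without protein; strong numbers were not always called active; many hits fall short of the cut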
CSC inhib: cancer stem cell inhibition; cancer stem cell-like cells viability, luminescence; actives 1.1% (n = 300,000); inhibition, % at 7.5 µM; AID 2717;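 active means mean at 75% or more and at least half the replicates too; inconclusive means mean and replicates disagree; tested in HMLE shEcad cells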;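 further: 0% = median of negative and 100% = median of positive control wells; the first replicate is given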
MT1-MMP act inh: inhibitors of human MT1-MMP activation | P50281 | AID 651647 | actives 0.061% (n = 360,000) | HT1080 RFP-PRO-GFP cells, GFP/RFP ratio fluorescence, overnight; percent of plate control window, DMSO zero | GFP/RFP ratio change, % at 20 µM;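 active means GFP/RFP ratio change of at least 30% with cell ATP level not reduced by more than half and red fluorescence within 50% of control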; further: strong numbers were not always called active
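Compound: 20 µM single dose, 1% DMSO / System: HT1080 RFP-PRO-GFP cells / Controls: DMSO and RFP-L50D-GFP cell wells / Read-out basis: GFP/RFP fluorescence ratio / Schedule: overnight compound exposure at 37 °C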
MT1-MMP act inh RFP: second read-out of MT1-MMP act inh, no call of its own (marks repeat the call); RFP signal change, %; measured here: RFP expression control read;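 0 = vehicle wells; hits needed this value within 50% of zero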
* = called active by the depositor; i = inactive; ? = inconclusive; · = not tested or not shown; & = joins results of further samples.

SMILES	PABP polyA inh	Rce1 inh	Env fusion inh	UUG fidelity	eIF4H FP inh	CSC inhib	MT1-MMP act inh	MT1-MMP act inh RFP
Cc1ccc(CSCc2ccc(C(=O)NCCC(C)C)o2)cc1	6	i	19	4	-1	7	2	-5
Cc1[nH]c(N=Nc2ccccc2)nc1N=Nc1ccccc1	6	i	-46	·	15	105*	16	3
CCOc1ccc(N2C(=O)CN(c3cccc4ccccc34)C2=S)cc1	-5	·	9	-7	4	-12	2	6
Cc1cccc(OCC(=O)NC(=S)Nc2ccc(S(=O)(=O)NC3CCCCC3)cc2)c1	-7	i	·	-16	-9	·	1	-5
CCCCN(C(=O)c1cccc(-n2cccc2)c1)c1c(N)n(CCCC)c(=O)[nH]c1=O	·	i	-13	-4	·	6	-5	3
O=c1ccc(-c2ccc(S(=O)(=O)Nc3cccc([N+](=O)[O-])c3)s2)n[nH]1	3	i	3	-11	1	1	0	3
Cc1cc(SCC(=O)N/N=C/c2ccc(O)c(O)c2)nc2ccccc12	5	i	-2	-2	28	47	-5	-16
Cc1nn2cnnc2c(C)c1Cc1ccc(Cl)cc1	-7	i	-3	-17	-3	-7	5	2
C[C@]12CCC(O)CC1=CCC1C2CC[C@]2(C)/C(=N\NC(N)=S)CCC12 (stereo not given in full)	4	i	-4	-23	4	-19	5	-7
CCCCCCn1c(SCCCC)nc2c1c(=O)[nH]c(=O)n2C	6	·	·	-9	6	-12	-4	-9
CC(NC(=S)NC(=O)c1ccccc1)c1ccccc1 (stereo not given)	·	i	5	-21	·	9	-4	-3
Cc1cc(C)c(NC(=O)c2ccc(CN3CCc4ccccc4C3)cc2)c(C)c1	-13	i	·	3	-7	6	-2	-9
COc1cc2c(c(OC)c1OC)-c1c(cc3c(c1O)OCO3)C[C@@H](C)[C@@H](C)C2	-9	i	15	2	-4	1	3	-3
COc1ccccc1CCc1nnc(CCC(=O)NC(C)Cc2cccs2)o1 (stereo not given)	-2	i	-9	·	-5	-2	-4	3
O=C(COc1ccc(Cl)cc1)Nc1ccc(Cl)cn1	0	i	·	-12	-4	5	5	3
CCc1nnc(NS(=O)(=O)c2ccc(NC(=O)c3cccc(OC(F)(F)C(F)F)c3)cc2)s1	·	i	-1	11	·	3	5	1
Cc1cccc2c(CC(=O)O)noc12	15	i	-10	·	-8	2	-9	-4
CC(C)CC(=O)N1CCN(Cc2ccc(Cl)cc2)CC1	18	i	10	-4	8	-8	1	-5
Cc1cc(C(=O)NC2CCCCCCC2)ccc1[N+](=O)[O-]	·	i	-55	-7	·	3	1	-3
CCOC(=O)CCCc1ccc(/C(C)=N/NC(N)=S)cc1	5	i	-227	·	-2	7	-3	0
O=C(CSc1ncn[nH]1)N1CCN(S(=O)(=O)c2ccc(Cl)cc2)CC1	-1	i	-29	-10	0	-10	3	2
CCOc1ccccc1/C=C(/NC(=O)c1ccccc1)C(=O)NC(C)c1ccccc1 (stereo not given)	1	i	-62	13	6	-23	-10	-5
C=CCNC(=S)/C(=C(\[O-])c1ccc(Cl)cc1)[n+]1ccccc1	12	i	-15	-17	7	-11	-1	7
CCCCCCCNC(=O)C1(CC2CC(c3ccc(Cl)cc3)=NO2)CCNCC1 (stereo not given)	1	i	0	-5	-7	15	·	·
COc1ccc(C(C)(C)C)cc1NC(=O)CNc1cccc2ccccc12	4	i	-10	·	18	34	5	4
CC[C@]12C(=O)N(C)C[C@H]([C@@H]3C(=O)N(C)C(=O)[C@@H]31)N2C(=O)c1ccc(Cl)cc1	·	·	15	0	·	·	0	-1
CN(C)CC(C)(C)NS(=O)(=O)c1ccc(Cl)cc1	-4	i	·	-2	8	·	2	2
CC(C)CNC(=O)c1ccccc1Oc1ccccc1	-1	i	·	-47	6	-4	4	4
CCN(CC)P(=O)(Nc1ccc(SC(F)F)cc1)c1ccc(N(C)C)cc1NC(=O)c1ccco1 (stereo not given)	-10	i	4	·	-9	18	-8	-5
COc1ccc(-c2cc(-c3ccc(O)cc3)nc(N)c2C#N)cc1OC	-2	i	8	-8	-4	12	16	-2
CCOc1cc(C2C3=C(CC(C)(C)CC3=O)Nc3n[nH]c(C)c32)ccc1O (stereo not given)	5	i	13	·	3	-3	-1	3
CC(O)(c1cccc(F)c1)c1nc(-c2cccc(C(F)(F)F)c2)cs1 (stereo not given)	·	·	-6	0	·	·	0	-5
COc1cc(OC)cc(C(=O)NCCCN2CCN(CCCNC(=O)c3cc(OC)cc(OC)c3)CC2)c1	0	i	·	-5	18	-15	11	4
Cc1cc(C)c(OCCN2CCOCC2)c(Cl)c1	1	i	8	-14	11	-13	0	-3
CC1CCN(c2ccc([N+](=O)[O-])cc2C(=O)NCC2CCCO2)CC1 (stereo not given)	-10	i	-6	-11	11	-6	0	2
COc1cccc(C2C(C(=O)OC(C)C)=C(C)N=c3s/c(=C\c4ccc(C(=O)O)cc4)c(=O)n32)c1 (stereo not given)	5	i	3	·	2	22	-3	-4
Cc1nc2ncnn2c(C)c1CCC(=O)N1CCc2ccccc21	-10	i	3	-1	-7	-11	-2	-3
COc1ccc(OC)c(CN2CCN(c3ccc(S(=O)(=O)N4CCCC4)cn3)CC2)c1	·	·	·	-9	·	29	0	1
CCCCSc1nc(CCC)cc(=O)[nH]1	7	i	-117	1	-5	-17	6	5
CCOC(=O)C(NC(=O)CC(C)C)(Nc1sc2c(c1C(N)=O)CCCC2)C(F)(F)F (stereo not given)	0	i	-13	·	-1	6	-1	5
N#Cc1c(C(F)(F)F)cc(-c2cccs2)nc1N1CCCCC1	?	i	-6	·	?	3	-2	-1
Cc1ccc(CNC(=O)CCCCn2c(=O)[nH]c3ccsc3c2=O)cc1	3	i	12	-20	-8	3	2	3
Nc1nc2ccc(S(=O)(=O)N3CCCCC3)cc2s1	4	i	-5	-17	-5	-13	0	1
O=C(C(Cc1ccccc1)n1cccc1)N1CCCCC1 (stereo not given)	6	i	-7	-6	-3	-4	2	2
Cc1ccc(/C(N)=N/OC(=O)Oc2ccccc2)cc1	-4	i	-43	-13	-1	4	-2	4
COCc1cc(C)nc(SCC(=O)Nc2cc(C(F)(F)F)ccc2N2CCOCC2)c1C#N	8	i	6	-11	8	53	0	0
C[C@H]1CN([C@@H](C)CO)C(=O)CCCn2nncc2CO[C@H]1CN(C)C(=O)c1ccc(N2CCN(C)CC2)cc1	·	·	-2	8&10	·	·	-1	3
COc1ccccc1C(=O)NNC(=O)C(=O)NC1CCCCC1	5	i	15	-11	-13	-3	4	6
CC(NC(=O)CN(C)Cc1nc2ccccc2c(=O)[nH]1)c1ccccc1 (stereo not given)	-9	i	·	·	4	-8	4	3
COC(=O)Cc1ccc(NC(=S)N2CCCC(CO)C2)cc1 (stereo not given)	5	i	-20	-31	-1	-1	2	2
Fc1cccc(Cc2noc(CN3CCOCC3)n2)c1	-13	i	-9	·	-5	-11	-4	2
CSc1nc(C)cc(SCC(=O)N/N=C/c2ccccc2)n1	-3	i	18	·	-5	-5	0	1
C=CCNc1nc(-c2ccc(Cl)cc2)cs1	8	i	·	·	2	15	3	-6
c1ccc(CCc2nc(-c3cccnc3)no2)cc1	3	i	·	-13	6	-5	-2	2
CN(CC(=O)Nc1ccc(Cl)cc1)S(=O)(=O)c1ccc2c(c1)n(C)c(=O)c(=O)n2C	-1	i	0	-7	-3	-3	3	3
COc1ccc(C(=O)c2sc3nc(-c4ccc(OC)cc4)ccc3c2N)cc1	26	i	-21	·	4	1	-48	1
O=C(O)CSC(C(=O)Nc1ccc(Br)cc1)c1ccc(Cl)cc1 (stereo not given)	-10	i	-11	·	3	9	6	6
Cc1cccc2sc(N(CCCN(C)C)C(=O)CN3C(=O)c4ccccc4C3=O)nc12	-9	i	-6	·	-13	-17	-1	-2
O=C(O)c1cccc(S(=O)(=O)Nc2ccc(Cc3ccncc3)cc2)c1	·	·	-157	-1	·	-10	1	-1
Cc1ccc(S(=O)(=O)CC(O)COc2ccc(F)cc2Cl)cc1 (stereo not given)	-5	i	-1	-8	1	4	1	2
Remaining list, next part:
SMILES	PABP polyA inh	Rce1 inh	Env fusion inh	UUG fidelity	eIF4H FP inh	CSC inhib	MT1-MMP act inh	MT1-MMP act inh RFP
COC(=O)CSCc1nc2ccccc2[nH]c1=O	7	i	-3	-14	4	0	-15	0
NC(=O)c1c(NC(=O)c2cccnc2)sc2c1CCCCC2	10	i	-17	-10	13	·	-3	-3
COCCCNC(=O)Cc1coc2ccc3ccccc3c12	-9	i	11	-11	5	-3	-2	2
CC(C)(CNC(=O)Cc1ccc(Br)cc1)N1CCOCC1	-6	i	-8	-16	-9	-14	-2	2
COc1cc(/C=N/NC(=O)c2ccccc2O)ccc1OCC(=O)Nc1ccccc1	·	i	-12	-19	·	-6	2	0
CC1(C)CC(=O)C(C=NCCc2ccccn2)=C(O)C1	-6	i	·	·	-11	-12	8	2
CC1=C(C(=O)Nc2ccccn2)C(c2cn(C)nc2C)C2=C(CCCC2=O)N1 (stereo not given)	12	·	-2	·	-4	-16	0	6
CCCC1CC(C#N)N(N(C)C)C1=C(C#N)C#N (stereo not given)	-2	i	3	-16	-3	-16	3	4

Rewritten as a markdown table: part of the list above
| mol | PABP polyA inh | Rce1 inh | Env fusion inh | UUG fidelity | eIF4H FP inh | CSC inhib | MT1-MMP act inh | MT1-MMP act inh RFP |
| --- | --- | --- | --- | --- | --- | --- | --- | --- |
| C=CCNc1nc(-c2ccc(Cl)cc2)cs1 | 8 | i | · | · | 2 | 15 | 3 | -6 |
| c1ccc(CCc2nc(-c3cccnc3)no2)cc1 | 3 | i | · | -13 | 6 | -5 | -2 | 2 |
| CN(CC(=O)Nc1ccc(Cl)cc1)S(=O)(=O)c1ccc2c(c1)n(C)c(=O)c(=O)n2C | -1 | i | 0 | -7 | -3 | -3 | 3 | 3 |
| COc1ccc(C(=O)c2sc3nc(-c4ccc(OC)cc4)ccc3c2N)cc1 | 26 | i | -21 | · | 4 | 1 | -48 | 1 |
| O=C(O)CSC(C(=O)Nc1ccc(Br)cc1)c1ccc(Cl)cc1 (stereo not given) | -10 | i | -11 | · | 3 | 9 | 6 | 6 |
| Cc1cccc2sc(N(CCCN(C)C)C(=O)CN3C(=O)c4ccccc4C3=O)nc12 | -9 | i | -6 | · | -13 | -17 | -1 | -2 |
| O=C(O)c1cccc(S(=O)(=O)Nc2ccc(Cc3ccncc3)cc2)c1 | · | · | -157 | -1 | · | -10 | 1 | -1 |
| Cc1ccc(S(=O)(=O)CC(O)COc2ccc(F)cc2Cl)cc1 (stereo not given) | -5 | i | -1 | -8 | 1 | 4 | 1 | 2 |
| COC(=O)CSCc1nc2ccccc2[nH]c1=O | 7 | i | -3 | -14 | 4 | 0 | -15 | 0 |
| NC(=O)c1c(NC(=O)c2cccnc2)sc2c1CCCCC2 | 10 | i | -17 | -10 | 13 | · | -3 | -3 |
| COCCCNC(=O)Cc1coc2ccc3ccccc3c12 | -9 | i | 11 | -11 | 5 | -3 | -2 | 2 |
| CC(C)(CNC(=O)Cc1ccc(Br)cc1)N1CCOCC1 | -6 | i | -8 | -16 | -9 | -14 | -2 | 2 |
| COc1cc(/C=N/NC(=O)c2ccccc2O)ccc1OCC(=O)Nc1ccccc1 | · | i | -12 | -19 | · | -6 | 2 | 0 |
| CC1(C)CC(=O)C(C=NCCc2ccccn2)=C(O)C1 | -6 | i | · | · | -11 | -12 | 8 | 2 |
| CC1=C(C(=O)Nc2ccccn2)C(c2cn(C)nc2C)C2=C(CCCC2=O)N1 (stereo not given) | 12 | · | -2 | · | -4 | -16 | 0 | 6 |
| CCCC1CC(C#N)N(N(C)C)C1=C(C#N)C#N (stereo not given) | -2 | i | 3 | -16 | -3 | -16 | 3 | 4 |

Screens (PubChem)

Not all compounds are listed; rates above refer to the full screens.
